NPYLR7 ag: activates Aedes aegypti NPYLR7 receptor; HEK293T NPYLR7/Galpha15, GCaMP6s calcium fluorescence; hit rate 0.15% among 270,000; activation, % at 10 µM; in the data active means activation above about 40%;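 further: 0% = vehicle and 100% = reference agonist at the receptor; some compounds past the cut are filed as inactive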
NPYLR7 ag max-min: second read-out of NPYLR7 ag, no call of its own (marks repeat the call); activation, %; measured here: Max-Min RFU normalised activation; some inactives read as strong as hits;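 span of the calcium signal over five minutes; 0% = vehicle and 100% = native peptide agonist; compound fluorescence can raise it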
Active calls of the source: *; & = joins results of further samples.

Values in the order – NPYLR7 ag	NPYLR7 ag max-min
CC1(C)CCCC2(C)C3C1[C@@H](O)C2(C)C[C@H]3O (some centres undefined)
 : -4.3	-9.0
N#Cc1c(NC(=O)CSc2nnc(-c3cccs3)n2C2CC2)sc2c1CCC2
 : 3.4	7.4
CCn1c(C2CCN(C(=O)c3cccc(F)c3OC)CC2)n[nH]c1=O
 : 1.7	-2.5
COCCS(=O)(=O)c1ccc(Cl)c(C(=O)Nc2ccc(C)cc2)c1Cl
 : -0.3	-4.6
COC(=O)CCCCC(=O)N1CCN(C(c2ccccc2)c2ccc(Br)cc2)CC1 (centres undefined)
 : 2.1	2.7
Cc1cc2cc(CCNC(=O)C(C)C)c(=O)[nH]c2cc1C
 : 0.1	15.4
COCCN(Cc1ccc(OC)cc1)c1c(C)nc2ccc(C(=O)NCCC(C)C)cn12
 : -11.7	-14.8
COCCN(Cc1csc(COc2ccc(Cl)cc2)n1)S(=O)(=O)c1ccc(OC)cc1
 : -8.8	-4.5
Cn1c(=O)c2cc(C(=O)NCC(=O)c3ccccc3)n(Cc3ccccc3)c2n(C)c1=O
 : 0.1	-1.9
COc1cc(OC)c(CNC(=O)c2c(C)noc2-c2ccc(OC(F)(F)F)cc2)c(OC)c1
 : 22.4	11.5
O=C(Nc1cccnc1)c1cnn2c1NC(c1cccs1)CC2C(F)(F)F (centres undefined)
 : -5.8	-10.7
O=C(CN1CSCC1=O)NCC12CC3CC(CC(C3)C1)C2
 : 5.7	11.7
Cc1c(NCc2ccccn2)cccc1C(=O)N(C)C(C)c1ccon1 (centres undefined)
 : -1.1	2.7
CCC(=O)N1CCC1(C)C(=O)Nc1ccccc1F (centres undefined)
 : -2.1	-3.1
C=CCn1c(=O)c2ccccc2n2c(SCCC(=O)OC)nnc12
 : 11.3	0.9

The final 2 compounds of the section above come first, to join the parts.
Values in the order – NPYLR7 ag	NPYLR7 ag max-min
CCC(=O)N1CCC1(C)C(=O)Nc1ccccc1F (centres undefined)
 : -2.1	-3.1
C=CCn1c(=O)c2ccccc2n2c(SCCC(=O)OC)nnc12
 : 11.3	0.9
Cc1ccoc1C(=O)NCC(c1sccc1C)N(C)C (centres undefined)
 : 0.0	-0.6
O=C(Nc1cccc(C2SCC(=O)N2c2ccc(F)cc2F)c1)c1cccc([N+](=O)[O-])c1 (centres undefined)
 : -18.9	-12.4
Cc1onc(-c2c(F)cccc2Cl)c1C(=O)N1CCC(c2ccccc2)CC1
 : -0.3	-6.7
Cc1ccc(C2CCCN2C(=O)c2ccc(=O)[nH]n2)cc1 (centres undefined)
 : -0.5&-19.4	-4.3&-22.0
N#CC(C#N)=Cc1cn(-c2ccccc2)nc1-c1cccc([N+](=O)[O-])c1
 : -3.3	-8.8
Cc1ccc(NC(=O)NCCn2ncccc2=O)cc1Cl
 : -13.3	-18.8
CN1C(=O)C(=Cc2cccc(OCCOc3ccccc3)c2)C(=O)N(C)C1=O
 : 1.5	1.4
OC1(c2ccc(Cl)cc2)CCN(c2nc(-c3ccc(F)cc3F)nc3ccccc23)CC1
 : 0.5	-1.0
O=C(Cn1ncc(Cl)c(Cl)c1=O)c1ccc2c(c1)OCO2
 : 8.7	9.9
Cc1ccc(NC(=O)C2CCCN(C(=O)C(C)Oc3ccc4c(c3)CCC4)C2)nc1 (centres undefined)
 : 4.1	0.0
CCN(CC)CCN(C(=O)c1ccc(C(=O)OC)cc1)c1nc2c(F)cc(F)cc2s1
 : -5.7	-8.4
c1ccc(-c2nonc2N=NNc2nonc2-c2ccccc2)cc1
 : 3.7	3.8
N#Cc1ccc(CNc2cccc(Br)c2)c(F)c1
 : -1.5	-3.8
CCCOC(=O)C1=C(C)NC(=O)NC1c1ccccc1F (centres undefined)
 : -4.3	-5.4
Cc1nc(-c2cccnc2)sc1-c1ccc(SCC(=O)Nc2ccc(Br)cc2)nn1
 : 2.7	0.7
C=C(C)C1CC=C(CN2CCN(c3ccc(C(C)=O)cc3)CC2)CC1 (centres undefined)
 : 12.3	11.6
Cc1ccc(/C=C/CC(=O)Nc2ccccc2N2C(=O)CCC2=O)cc1
 : 3.9	1.5
COC(=O)c1c(C)c(C(=O)C(C)N(Cc2ccc(F)cc2)C(=O)c2cccc(Cl)c2)c(C)n1C (centres undefined)
 : -11.6	-6.7
CCOC(=O)C1=C(C)Nc2nc(SCC(C)C)[nH]c(=O)c2C1c1sccc1C (centres undefined)
 : 2.8	10.7
COc1cccc([C@@H](C)NC(=O)CCC2(Cc3cc(OC)ccc3F)CCC(=O)N2)c1 (some centres undefined)
 : 5.1	1.6
CC(C)Oc1nc(-c2ccc(Cl)c(Cl)c2)n(-c2ccc(NC(=O)C3CCC3)cc2)n1
 : 12.1	26.9
COc1ccc2[nH]c3c(c2c1)CCN(C(=O)c1cccnc1Oc1ccc(Cl)cc1)C3COCc1ccccc1 (centres undefined)
 : 5.9	-2.5
CC(C)CC1NC2(CCN(C(=S)NC3CC3)CC2)N(C2CC2)C1=O (centres undefined)
 : 7.4	5.5
COc1ccccc1NC(=O)C1=C(C)NC(=O)NC1c1cccc(OC)c1OC (centres undefined)
 : -3.8	-9.0
COC(=O)c1cc(CSCC(=O)Nc2ccc3c(c2)OC(F)(F)O3)oc1C
 : 5.0	3.8
COC(=O)c1sccc1CN1CCc2ccc(S(N)(=O)=O)cc21
 : -0.7	0.2
COCCOCC(=O)N1CCN(c2nc3ccccc3nc2C)CC1
 : 12.5	15.5
Cc1nc2ccc(C(=O)NC3CCN(C)CC3)cn2c1N(C)C=O
 : 14.6	14.6
N#Cc1ccc(C(=O)N2CCN(C(c3ccc(Cl)cc3)c3ccc(Cl)cc3)CC2)cc1
 : 4.7	3.9
O=C(NCC1CCCO1)c1c(O)nc2sccn2c1=O (centres undefined)
 : -0.4	2.9

3 consecutive compounds already listed, for reference:
Values in the order – NPYLR7 ag	NPYLR7 ag max-min
C=C(C)C1CC=C(CN2CCN(c3ccc(C(C)=O)cc3)CC2)CC1 (centres undefined)
 : 12.3	11.6
Cc1ccc(/C=C/CC(=O)Nc2ccccc2N2C(=O)CCC2=O)cc1
 : 3.9	1.5
COC(=O)c1c(C)c(C(=O)C(C)N(Cc2ccc(F)cc2)C(=O)c2cccc(Cl)c2)c(C)n1C (centres undefined)
 : -11.6	-6.7

Back to the main list; the five compounds before the break are reprinted first.
Values in the order – NPYLR7 ag	NPYLR7 ag max-min
COC(=O)c1sccc1CN1CCc2ccc(S(N)(=O)=O)cc21
 : -0.7	0.2
COCCOCC(=O)N1CCN(c2nc3ccccc3nc2C)CC1
 : 12.5	15.5
Cc1nc2ccc(C(=O)NC3CCN(C)CC3)cn2c1N(C)C=O
 : 14.6	14.6
N#Cc1ccc(C(=O)N2CCN(C(c3ccc(Cl)cc3)c3ccc(Cl)cc3)CC2)cc1
 : 4.7	3.9
O=C(NCC1CCCO1)c1c(O)nc2sccn2c1=O (centres undefined)
 : -0.4	2.9
Cc1nnsc1CN(C)C(=O)c1sc(C(C)C)nc1C
 : 9.1	8.7
COc1ccc(N2C(=O)/C(=C/c3cc(Cl)c(OCC(=O)O)c(Cl)c3)C(=O)NC2=S)cc1
 : -8.2	-16.2
O=C(NCC(O)c1ccccc1C(F)(F)F)C1CC1c1ccccc1Cl (centres undefined)
 : 2.4	-10.9
CCCCCn1cc(C2CCN(S(=O)(=O)c3cc(C(F)(F)F)ccc3Cl)CC2)c2ccccc21
 : 18.7	11.1
CC1CCCN(C(=O)c2cn(C)c3c(=O)n(Cc4ccccc4)c(=O)[nH]c23)C1 (centres undefined)
 : 3.5	1.4
COc1cccc(CNC(=O)CCC2CCCN(C(=O)c3ccc(F)c(Cl)c3)C2)c1 (centres undefined)
 : 6.5	5.1
Cc1ccc(C(=O)Nc2nnc(-c3cc(C)n(C)n3)o2)cc1
 : -11.5	-17.0
Nc1ncnc(N(Cc2ccccc2)c2ccccc2)c1[N+](=O)[O-]
 : 25.8	13.6
CCCC(=O)N1CCN(c2cnn(-c3ccccc3)c(=O)c2Cl)CC1
 : 12.6	4.0
CCOC(=O)N1CCC2(CC1)OS(=O)(=O)C(c1ccccc1)C2=N (centres undefined)
 : -5.8	2.5
C/C=C(\C)C(=O)NCC1Cc2cccc(-c3cncnc3)c2O1 (centres undefined)
 : 4.7	-0.1
CS(=O)(=O)NC1CCN(C(=O)Cn2cnc3ccccc3c2=O)CC1
 : 8.7	8.8
CCOC(=O)C(c1ccc(OC)c(OC)c1)C1C=CC(NC(=O)c2ccc([N+](=O)[O-])o2)C1 (centres undefined)
 : 5.1	0.3
Cc1ccc(C)c(S(=O)(=O)NCCc2ccccc2F)c1
 : -0.2	-1.9
Cc1nc2ccccc2n1CCNC(=O)N1CCCC1C(N)=O (centres undefined)
 : 2.1	1.5
COc1ccc(OC)c(NC(=O)C2(C)CCN2C(=O)C2(c3ccc(Cl)cc3)CCC2)c1 (centres undefined)
 : 4.4	2.9
COc1cc(CN2CCn3nc(C(=O)NCCCN4CCCC4=O)cc3C2=O)cc(OC)c1
 : 16.9	9.7
CN(C)c1nc2nonc2nc1NCC1(N2CCOCC2)CCCCC1
 : 7.6	3.4
O=C(NC(Cc1ccccc1)c1ccccc1)c1csc(CSc2nnc(-c3cccnc3)n2-c2ccccc2F)n1 (centres undefined)
 : -4.4	14.2
CN(CC(=O)NC(C)(C)C)C(=O)c1ccc2ccccc2c1
 : 4.0	2.3
Nc1cc2c(=O)[nH]cnc2cc1F
 : 2.4	7.7
Cc1ccc(/C=C/S(=O)(=O)N2CC(C(N)=O)CCC2C)cc1 (centres undefined)
 : -12.6	-18.9
CC(C)(CNC(=O)c1cc2ccccc2s1)N1CCOCC1
 : 8.2	5.9
CC(Oc1ccc(Br)cc1F)C(=O)NC1CCS(=O)(=O)C1 (centres undefined)
 : -6.9	2.5
CCCn1c(C2CC(=O)N(c3cc(C)cc(C)c3)C2)nc2ccccc21 (centres undefined)
 : 2.1	-3.5
OCC#Cc1csc(CN2CCN(c3ncc(Cl)cn3)CC2)c1
 : 9.0	7.6
COc1c(C2=CC(=O)N(C)C2=O)c2c(n1C)C(=O)c1ccccc1C2=O
 : 0.4	-1.6
COC(=O)c1ccc2oc(=O)n(C3CCN(C(=O)c4ccco4)CC3)c2c1
 : 22.5	18.5
CCOc1ccc(-c2cc(C(=O)NC3CCC[C@@H]3OCc3ccccc3)c3ccccc3n2)cc1 (some centres undefined)
 : -2.1	7.2
CCc1ccc[n+](C2=C(c3c(C)[nH]n(-c4ccccc4)c3=O)C(=O)N(CC3CCCO3)C2=O)c1 (centres undefined)
 : -5.5	0.2

The list continues.
Molecule | NPYLR7 ag | NPYLR7 ag max-min
CNC(=O)CC(C)N(C)C(=O)c1cccc2c3c([nH]c12)CCCC3 (centres undefined) | 19.6 | 9.4
COc1cc(-c2nc3ccccn3c2NC2CCCCC2)ccc1OC(=O)c1ccccc1C | 13.8&-6.5 | 23.4&-1.5
Cc1ccc(-c2nc(NCCNS(=O)(=O)c3cccc(C(F)(F)F)c3)c3ccccc3n2)cc1 | 3.3 | 11.5
O=C(CCc1ccccc1)N1CC(=O)N(CC2CC2)CC(O)C1 (centres undefined) | 25.9 | 33.9
CCCN(Cc1c(C)nn(-c2ccc(Cl)cc2)c1Oc1ccccc1OC)CC(C)O (centres undefined) | -0.4 | 8.0
O=C(COC(=O)C1CCC1)Nc1ccccc1C(=O)NC1CCCC1 | 15.6 | 16.4
O=C(Nc1ccccn1)C1COCC(=O)N1Cc1ccccc1 (centres undefined) | 2.3 | -0.2
CCN(CC)S(=O)(=O)c1c[nH]c(C(=O)Nc2ccc(OC)c(Cl)c2)c1 | 2.0 | 1.6
Cc1cc(CNCC2(O)CCCN(Cc3ccccc3F)C2=O)n[nH]1 (centres undefined) | 18.1 | 10.4
CC(=O)N1CCc2cc(C(=O)C(C)Sc3nc4ccsc4c(=O)n3C)ccc21 (centres undefined) | -2.6 | -4.6
O=C(NCCc1csc2nc(-c3cccc(F)c3)nn12)C1CCCCC1 | -7.1 | -7.2
Cc1noc(C)c1S(=O)(=O)N(C)CC(=O)NCc1ccc(Cl)cc1 | 6.2 | 5.1
COCCOC(=O)C1=C(C)N(C)C(=S)NC1c1ccc(NC(=O)Cc2cccs2)cc1 (centres undefined) | -14.2 | -10.5
CN1CCN(N=Cc2ccccc2F)CC1 | 7.0 | 6.0
Cc1noc(C)c1CC(=O)Nc1sc2c(c1C(N)=O)CCC2 | -0.9 | -1.2
CN1CCCC1CCn1ccnc1-c1cc2c(cc1Cl)OCO2 (centres undefined) | 4.4 | -3.5
Cc1ccccc1OCc1ccc(-c2nc(C#N)c(NCc3ccc4c(c3)OCO4)o2)o1 | 1.2 | 20.3
O=C(Nc1ccc2ncsc2c1)C1CC=CCC1C(=O)N1CCc2ccccc2C1 (centres undefined) | -16.0 | -23.0
O=C(NCc1ccncc1)c1cccc(Nc2c(Oc3ccccc3)cnn(-c3ccccc3Cl)c2=O)c1 | -1.2 | 1.5
CCOC(=O)C1CCN(C(=O)c2ccc(CSc3nc(CC)cc(N(C)Cc4ccccc4)n3)cc2)CC1 | 16.3 | 11.1
COc1ccc(N2CCN(c3ncnc4c3cnn4CCNC(=O)c3cccs3)CC2)cc1 | -0.1 | -0.5
CCOc1cc(C(=O)Nc2cc(C)nn2-c2nc(C)c(CC)c(=O)[nH]2)cc(OCC)c1OCC | 12.5 | 5.3
CC(=O)NCC1CCCN(Cc2ccc(C)c(Cl)c2Cl)C1 (centres undefined) | -0.6 | -4.7
C=CCC1(N(C(C)=O)c2ccccc2)CCCCC1 | -3.6 | -9.2
O=C(Cc1ccc2ccccc2c1)NC1CCCCNC1=O (centres undefined) | 2.4 | -0.3
CCN(CC)P(=Nc1ccccc1)(c1nc2ccccc2n1CC)N(CC)CC | -1.8 | -2.6
Cc1cnc(CNC(=O)c2ccc3sc([C@H]4C[C@H](O)[C@@H](CO)O4)nc3c2)cn1 | -0.3 | -1.6
N#CC1C(=N)C(C#N)(C#N)C(c2ccccc2I)C2CCCC=C12 (centres undefined) | 5.2 | 2.2
O=C(Nc1ccc(F)cc1)C1CCCN(C(=O)N2CCCC2)C1 (centres undefined) | 5.3 | 4.1
CC(=O)c1ccc(C(=O)N(Cc2cccnc2)c2nc3c(C)c(C)ccc3s2)cc1 | -3.6 | 0.9

Screening data: PubChem BioAssay, Fisher Drug Discovery Resource Center

An excerpt. The share of hits here may be higher or lower than overall.
